rRNA inh HTS = selective bacterial rRNA inhibition in E. coli | AID 720706 | E. coli WT GFP vs humanized-ribosome RFP mutants, fluorescence, 24 h; stronger effect = lower value; DMSO median 0, no signal -100 | GFP signal change (wild-type ribosome), % (concentration not given with the values) | 350,000 compounds, 1.6% hits;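 active = significant combined selectivity score with lowered wild-type GFP, culture density cut under 30%, mutant RFP and density less affected; inactive = any of these conditions unmet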; also: one replicate is shown; some compounds called inactive have numbers as strong as hits
MLL AF4-AF9 inh = inhibitors of human MLL-AF4/AF9 interaction | 350,000 compounds, 0.47% hits | AID 651704 | inhibition, % at 10 µM | AlphaScreen, biotin-AF4 peptide binding to FLAG-AF9 | P42568;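 active = every replicate reaching a set inhibition limit, whatever the replicate mean, cut at about 25% in these data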;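 also: 0% = plate neutral control median and 100% = total signal loss; the record names both 10 and 1 µM as test concentration; the first replicate is given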
Target sequence (P42568 whole entry, looked up): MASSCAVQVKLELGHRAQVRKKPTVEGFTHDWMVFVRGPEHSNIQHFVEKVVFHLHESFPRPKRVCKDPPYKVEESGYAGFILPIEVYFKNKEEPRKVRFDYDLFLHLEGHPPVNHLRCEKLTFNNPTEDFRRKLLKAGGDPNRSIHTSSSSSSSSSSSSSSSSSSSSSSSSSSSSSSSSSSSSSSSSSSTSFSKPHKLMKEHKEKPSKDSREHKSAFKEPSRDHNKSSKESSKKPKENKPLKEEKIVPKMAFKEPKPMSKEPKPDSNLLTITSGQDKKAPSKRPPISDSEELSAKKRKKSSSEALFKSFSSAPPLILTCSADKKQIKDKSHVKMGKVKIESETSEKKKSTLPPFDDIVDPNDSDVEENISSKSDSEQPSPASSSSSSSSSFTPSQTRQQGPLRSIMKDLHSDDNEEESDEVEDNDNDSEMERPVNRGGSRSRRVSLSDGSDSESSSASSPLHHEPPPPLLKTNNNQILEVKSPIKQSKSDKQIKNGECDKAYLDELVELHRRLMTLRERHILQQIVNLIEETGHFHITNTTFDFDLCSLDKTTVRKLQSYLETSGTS
rRNA inh HTS OD600 = also measured in rRNA inh HTS; calls as there; OD600 change, %; measured here: OD600 growth;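 optical density of the mix in the first replicate; 0 = DMSO median and -100 = no signal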
rRNA inh HTS RFP = further read-out of rRNA inh HTS, marked with its call; RFP signal change, %; measured here: RFP humanized mutant strains;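 first replicate; 0 = DMSO median and -100 = no signal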
Active calls of the source: *.

SMILES	rRNA inh HTS	rRNA inh HTS OD600	rRNA inh HTS RFP	MLL AF4-AF9 inh
O=C(O)C[C@@H]1C[C@H]2c3cc(NC(=O)CC4CC4)ccc3O[C@H]2[C@H](CO)O1	-2.9	-6.8	-1.0	-0.4
C[C@@H]1CN([C@@H](C)CO)C(=O)c2cccc(NS(=O)(=O)c3cn(C)cn3)c2O[C@@H]1CN(C)C(=O)Nc1ccc(C(F)(F)F)cc1	-11.5	-7.4	-4.2	-3.6
O=C(Nc1cc(F)ccc1F)N1C[C@@H]2[C@H](c3ccccc31)[C@H](CO)N2Cc1ccncc1	-43.3*	-23.2*	-5.0*	0.1
Cc1cc(F)ccc1C(O)c1ncc(-c2cccc(F)c2)[nH]1 (configuration not stated)	14.4	-13.6	1.4	2.2
COC(=O)C[C@H]1CC[C@@H]2[C@@H](COc3ccc(NC(=O)Nc4ccccc4C)cc3C(=O)N2C)O1	-0.9	2.2	1.2	3.9
O=C(C[C@@H]1CC[C@H]2[C@@H](COC[C@@H](O)CN2S(=O)(=O)c2ccccc2)O1)NCCN1CCCC1	7.2	15.7	-6.4	-0.8
C[C@H]1CN([C@@H](C)CO)C(=O)Cc2cc(NS(=O)(=O)c3cccs3)ccc2O[C@H]1CN(C)C(=O)NC1CCCCC1	-0.1	-4.6	-0.7	-3.3
CC(C)NC(=O)Nc1ccc2c(c1)CC(=O)N([C@@H](C)CO)C[C@H](C)[C@@H](CN(C)C(=O)Nc1ccc(F)cc1)O2	1.9	-0.9	-1.2	0.5
COc1cccc(-c2ccc([C@@H]3[C@H](CO)N(C(=O)C4CC4)C34CN(C(C)=O)C4)cc2)c1	1.1	-5.6	-0.2	-1.2
CNC(=O)C[C@@H]1CC[C@H]2[C@@H](COc3ccc(NC(=O)c4cccc(OC)c4)cc3C(=O)N2C)O1	1.7	-6.7	-1.5	-2.8
C[C@@H]1CCCCO[C@@H](CN(C)Cc2ccc3c(c2)OCO3)[C@@H](C)CN([C@H](C)CO)C(=O)c2cc(NC(=O)CCCN(C)C)ccc2O1	3.4	11.3	1.4	3.6
CCCN(C)C[C@@H]1Oc2ncc(-c3ccccc3F)cc2C(=O)N([C@H](C)CO)C[C@@H]1C	1.4	9.5	1.7	1.3
COc1ccc(S(=O)(=O)Nc2ccc3c(c2)C(=O)N([C@H](C)CO)C[C@H](C)[C@@H](CN(C)C(=O)c2ccccc2)OCCCC[C@@H](C)O3)cc1	5.0	7.6	2.6	-4.8
C[C@@H]1CN([C@H](C)CO)C(=O)c2cc(NC(=O)c3ccccc3)ccc2O[C@@H](C)CCCCO[C@@H]1CN(C)S(C)(=O)=O	-2.7	-0.6	-1.0	-2.2
C[C@H](CO)N1C[C@H](C)[C@@H](CN(C)S(=O)(=O)c2ccc(Cl)cc2)Oc2ccc(NC(=O)c3ccncc3)cc2CC1=O	-4.6	2.3	-0.6	3.0
C[C@@H]1CN([C@H](C)CO)C(=O)c2cc(NC(=O)CCN3CCOCC3)ccc2O[C@@H]1CN(C)Cc1ccc2c(c1)OCO2	-0.7	-2.8	-0.1	-3.8
C[C@@H]1CN([C@H](C)CO)C(=O)c2cc(C#CC3(O)CCCC3)cnc2O[C@H]1CN(C)S(C)(=O)=O	1.5	6.4	-1.5	-0.6
O=C(Nc1ccc2c(c1)[C@@H]1C[C@H](CC(=O)N3CCCCC3)O[C@H](CO)[C@@H]1O2)NC1CCCC1	3.8	2.2	-0.6	1.1
CCS(=O)(=O)N1CC(=O)N2[C@@H](CO)[C@H](c3ccc(C#CCc4ccccc4)cc3)[C@@H]2C1	5.0	12.6	-4.3	2.3
CCCC(=O)N1CCCC1(C)C(=O)Nc1cc(C)ccc1C (configuration not stated)	4.9	19.2	-1.1	-4.0
C[C@@H]1CN([C@H](C)CO)C(=O)Cc2cc(NC(=O)C3CC3)ccc2O[C@H]1CN(C)S(=O)(=O)c1ccc(Cl)cc1	-2.3	-7.1	-1.1	-0.2
COc1ccc(S(=O)(=O)Nc2ccc3c(c2)C(=O)N([C@H](C)CO)C[C@H](C)[C@H](CN(C)C)OCCCC[C@H](C)O3)cc1	2.0	1.8	-2.2	-6.1
COCC(=O)N1C[C@H](C)[C@@H](OC)CN(C)C(=O)c2ccc(NC(=O)C3CCC3)cc2OC[C@@H]1C	3.0	4.6	0.0	-1.5
CCS(=O)(=O)N1CC2(CN(C(=O)c3ccc(F)cc3)[C@@H](CO)c3c2c2ccc(OC)cc2n3C)C1	-4.9	-3.5	-1.5	-1.4
Cc1ccccc1-c1ccc2c(c1)O[C@@H](CN(C)Cc1ccc(C(=O)O)cc1)[C@@H](C)CN([C@@H](C)CO)S2(=O)=O	-4.4	2.2	-5.1	-1.1
CC(C)NC(=O)Nc1ccc2c(c1)C(=O)N([C@@H](C)CO)C[C@H](C)[C@@H](CN(C)S(=O)(=O)c1cn(C)cn1)O2	2.3	5.5	2.1	-1.4
C[C@@H]1CCCCO[C@@H](CN(C)C(=O)Nc2ccc(C(F)(F)F)cc2)[C@H](C)CN([C@H](C)CO)C(=O)c2cc(NC(=O)C3CCCCC3)ccc2O1	0.7	4.2	-1.0	-1.2
O=S(=O)(NC[C@@H]1N[C@@H](CO)[C@@H]1c1ccccc1)c1ccccc1	1.5	2.2	-0.1	1.0
C[C@H](CO)N1C[C@H](C)[C@H](CN(C)CC2CCCCC2)Oc2ccc(NC(=O)NC3CCCCC3)cc2C1=O	0.7	-2.4	0.6	-1.5
CCCC#Cc1ccc2c(c1)O[C@@H](CN(C)C(=O)NCCC)[C@@H](C)CN([C@@H](C)CO)S2(=O)=O	-1.4	-12.4	2.3	1.3

Of the compounds above, 2 have a Cl atom.
SMILES	rRNA inh HTS	rRNA inh HTS OD600	rRNA inh HTS RFP	MLL AF4-AF9 inh
C[C@H](CO)N1C[C@H](C)[C@@H](CN(C)S(=O)(=O)c2ccc(Cl)cc2)Oc2ccc(NC(=O)c3ccncc3)cc2CC1=O	-4.6	2.3	-0.6	3.0
C[C@@H]1CN([C@H](C)CO)C(=O)Cc2cc(NC(=O)C3CC3)ccc2O[C@H]1CN(C)S(=O)(=O)c1ccc(Cl)cc1	-2.3	-7.1	-1.1	-0.2

Remaining list, next part:
SMILES	rRNA inh HTS	rRNA inh HTS OD600	rRNA inh HTS RFP	MLL AF4-AF9 inh
CCCS(=O)(=O)NC(=O)C1(C)CCCN(C(=O)c2ccccc2F)C1 (configuration not stated)	1.8	6.0	-1.5	-0.1
C[C@@H]1CCCCO[C@@H](CN(C)Cc2ccc(C(=O)O)cc2)[C@H](C)CN([C@H](C)CO)C(=O)c2cc(NC(=O)C3CCCCC3)ccc2O1	3.0	5.5	1.4	-6.6
C[C@@H]1CN([C@@H](C)CO)C(=O)c2cc(NC(=O)CCC(F)(F)F)ccc2O[C@H]1CN(C)S(=O)(=O)c1cn(C)cn1	-1.2	4.2	-0.6	-4.2
CCCC(=O)Nc1ccc2c(c1)OC[C@@H](C)N(CCC(F)(F)F)C[C@@H](C)[C@H](OC)CN(C)C2=O	-1.9	-9.0	-0.5	-4.0
C[C@H](O)C#Cc1cnc2c(c1)C(=O)N([C@H](C)CO)C[C@H](C)[C@@H](CN(C)C(=O)c1ccccc1)O2	-0.5	-6.2	-3.5	-3.1
COc1ccc(S(=O)(=O)Nc2ccc3c(c2)CC(=O)N([C@H](C)CO)C[C@H](C)[C@@H](CN(C)Cc2ccccc2)O3)cc1	0.4	-9.6	3.3	9.9
CCCN(C)C[C@@H]1Oc2cc(C#Cc3ccccc3F)ccc2S(=O)(=O)N([C@@H](C)CO)C[C@@H]1C	-2.5	-17.0	19.3	6.3
O=C(CCN1CCCCC1)N[C@H]1CC[C@@H](CCn2cc(-c3ccc(F)cc3)nn2)O[C@H]1CO	2.9	-1.6	1.2	3.3
Cc1ccc(OCc2nnn(CC(=O)NS(=O)(=O)c3c(C)noc3C)c2-c2ccccc2)cc1	1.2	-12.5	1.2	-1.2
NC(=O)C1CCN(C(=O)c2ccc(Cl)c(NC(=O)c3cccs3)c2)CC1	7.3	11.4	-0.8	-3.6

Continued.
Below each compound – rRNA inh HTS | rRNA inh HTS OD600 | rRNA inh HTS RFP | MLL AF4-AF9 inh
C[C@@H]1CN([C@H](C)CO)C(=O)c2cc(-c3cncnc3)cnc2O[C@H]1CN(C)Cc1cncnc1
    5.2 | 11.9 | -1.8 | -0.8
C[C@@H]1CN([C@H](C)CO)C(=O)Cc2cc(NS(=O)(=O)c3cn(C)cn3)ccc2O[C@@H]1CN(C)C(=O)Nc1ccccc1
    6.1 | 7.3 | -1.3 | 1.8
C[C@@H]1CN([C@@H](C)CO)C(=O)c2cc(NC(=O)Nc3ccc4c(c3)OCO4)ccc2O[C@H]1CN(C)C(=O)NC1CCCCC1
    -3.4 | -3.9 | -3.2 | -0.3
CCN(C(=O)COC(=O)c1cc2c(s1)CCC(C)C2)c1c(N)n(Cc2ccccc2)c(=O)[nH]c1=O (configuration not stated)
    0.2 | 6.2 | -2.0 | 0.3
C[C@H](CO)N1C[C@H](C)[C@H](CN(C)Cc2ccc(C(=O)O)cc2)Oc2c(NC(=O)C3CCOCC3)cccc2C1=O
    3.0 | 5.9 | -1.6 | 0.5
CO[C@@H]1CN(C)C(=O)c2ccc(NC(C)=O)cc2OC[C@@H](C)N(Cc2ccccn2)C[C@@H]1C
    -1.0 | 2.5 | -2.9 | 0.0
O=C(N[C@H]1CC[C@@H](CCNC(=O)C2CCCC2)O[C@H]1CO)c1ccncc1
    -1.4 | 1.9 | -3.1 | -0.1
COCCCN(C(=O)CSc1nc2ccccc2c(=O)n1C)c1c(N)n(Cc2ccccc2)c(=O)[nH]c1=O
    2.7 | 11.4 | -0.4 | 0.0
CC(C)NC(=O)N(C)C[C@H]1Oc2ncc(C#Cc3ccccc3F)cc2C(=O)N([C@@H](C)CO)C[C@H]1C
    4.9 | -15.0 | 6.8 | -0.1
C#CCOCCOCCOCCNc1nc(N2CCN(C(=O)Cn3cc(CCO)nn3)CC2)nc(N2CCN(C(=O)[C@H](Cc3ccc(O)cc3)n3cc(CCO)nn3)CC2)n1
    4.8 | 16.4 | 5.1 | -14.6
CC=Cc1ccc2n(c1=O)C[C@@H]1[C@@H](CO)[C@H](C(=O)NCC(F)(F)F)[C@H]2N1C(=O)C1CCC1 (mixture of isomers)
    6.0 | 24.4 | -2.9 | -0.7
C[C@H]1CCCCO[C@@H](CN(C)Cc2ccccc2)[C@@H](C)CN([C@@H](C)CO)C(=O)c2cc(NC(=O)Nc3ccc4c(c3)OCO4)ccc2O1
    -0.7 | -5.8 | 3.0 | 19.0
CNC[C@@H]1Oc2cc(C#Cc3ccc(F)cc3)ccc2S(=O)(=O)N([C@@H](C)CO)C[C@H]1C
    -0.6 | -13.4 | 8.4 | 6.6
O=C(c1ccncc1)N1CC(=O)N2[C@H](CO)[C@H](c3ccc(-c4cccnc4)cc3)[C@@H]2C1
    8.4 | 5.7 | -6.2 | -4.4
CN1C(=O)c2cc(NC(=O)C3CCOCC3)ccc2OC[C@H]2O[C@H](CC(=O)O)CC[C@H]21
    5.3 | 3.6 | -2.4 | -0.9
C[C@@H]1CN([C@H](C)CO)C(=O)c2cc(NC(=O)CCC(F)(F)F)ccc2O[C@@H](C)CCCCO[C@H]1CN(C)S(=O)(=O)c1ccc(F)cc1
    0.6 | -2.7 | -1.6 | -7.1
CN1CCN(C(=O)C[C@H]2CC[C@H]3[C@@H](COC[C@H](O)CN3C(=O)C3CCOCC3)O2)CC1
    5.9 | 16.2 | 15.5 | -12.2
C[C@@H]1CN([C@H](C)CO)C(=O)Cc2cc(NS(=O)(=O)c3cccs3)ccc2O[C@H]1CN(C)Cc1ccc2c(c1)OCO2
    -7.1 | -6.2 | 0.8 | 0.0
Cc1ccc(NC(=O)CNC(=O)c2ccc(OC(F)F)cc2)cc1S(=O)(=O)N1CCCCCC1
    -23.0* | -11.2* | 3.1* | 0.3
COCC(=O)Nc1ccc2c(c1)[C@@H]1C[C@@H](CC(=O)N3CCc4ccccc4C3)O[C@H](CO)[C@@H]1O2
    2.2 | -0.4 | -0.3 | -0.9
O=C1NC[C@H](CCCCN2C[C@H](Cc3ccc(O)cc3)N(CCc3ccccc3)C(=O)C2=O)N(CCc2ccccc2)C1=O
    -1.2 | 3.7 | 1.0 | -0.3
C[C@@H]1CN([C@@H](C)CO)C(=O)c2cccc(NC(=O)c3nc4ccccc4s3)c2O[C@H]1CN(C)Cc1ccc(Cl)c(Cl)c1
    0.2 | 2.8 | 0.4 | 3.7
CNC[C@@H]1Oc2ccc(NS(=O)(=O)c3ccccc3)cc2CC(=O)N([C@@H](C)CO)C[C@H]1C
    7.9 | 4.2 | -1.9 | -2.5
C[C@H](CO)N1C[C@H](C)[C@@H](CN(C)Cc2ccc(C(=O)O)cc2)OCCCC[C@H](C)Oc2ccc(NC(=O)C3CCCCC3)cc2C1=O
    0.4 | 1.9 | 0.8 | -0.7
CCCNC(=O)[C@@H]1[C@@H](CO)[C@@H]2Cn3c(ccc(-c4ccccc4)c3=O)[C@@H]2N1C(=O)c1ccccc1F
    0.7 | 3.6 | -1.1 | -2.1
C[C@@H]1CN([C@@H](C)CO)C(=O)c2cc(NC(=O)Nc3cccc4ccccc34)ccc2O[C@@H](C)CCCCO[C@@H]1CN(C)Cc1ccncc1
    -2.3 | -2.5 | -0.8 | 0.8
Cc1ccc(CNC(=O)C2(C)CCN2C(=O)Cc2ccc(C(C)(C)C)cc2)cc1 (configuration not stated)
    -30.3 | -62.2 | 7.9 | -1.6

Not all compounds are listed; count on the stated rates, not on these rows.
